High-throughput results from PubChem BioAssay.
D2 potentiator – potentiates the human D2 dopamine receptor allosterically; DiscoveRx D2 beta-arrestin cells, luminescence, 90 min; 100% = 57 uM dopamine signal; potentiation, % (test concentration not listed); 360,000 compounds, 0.23% hits; AID 624464; P14416; active = potentiation of 50% or more; inconclusive = 30% to 50%; inactive = 30% or less;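 also: compound concentration not given in the record; tested on top of an EC20 dose of dopamine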
Target sequence (P14416 whole entry, looked up): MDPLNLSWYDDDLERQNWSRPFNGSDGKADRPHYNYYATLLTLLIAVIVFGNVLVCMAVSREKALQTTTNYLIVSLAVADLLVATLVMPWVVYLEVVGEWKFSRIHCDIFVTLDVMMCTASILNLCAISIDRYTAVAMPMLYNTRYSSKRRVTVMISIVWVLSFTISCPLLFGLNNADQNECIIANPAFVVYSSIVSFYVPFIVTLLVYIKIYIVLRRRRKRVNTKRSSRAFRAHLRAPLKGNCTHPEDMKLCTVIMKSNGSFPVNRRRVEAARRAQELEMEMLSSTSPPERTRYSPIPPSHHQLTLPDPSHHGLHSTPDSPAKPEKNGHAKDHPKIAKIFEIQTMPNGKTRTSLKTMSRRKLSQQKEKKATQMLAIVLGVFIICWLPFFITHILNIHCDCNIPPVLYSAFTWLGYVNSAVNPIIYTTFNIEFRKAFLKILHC
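PathHunter beta-arrestin assay in DiscoveRx D2 cells. Compounds were added with an EC20 of dopamine (50 nM final) for 90 min at 37 deg C. Luminescence was read 1 h after detection reagent, with 57 uM dopamine as the EC100 control.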
TRPML1 agonist – agonists of human TRPML1 channel; TRPML1-expressing cells, Ca2+ dye fluorescence, FDSS; host cell line not named in the record; reference of the full effect not given here; activation, % (no concentration beside the values); 410,000 compounds, 0.12% hits; AID 624414; in the data active = activation above about 50%; inconclusive = about 30% to 50%; inactive = below about 30%; also: 0% is about no effect; the text of the record puts the active cut at 80%
Target sequence (Q9GZU1 whole entry, looked up): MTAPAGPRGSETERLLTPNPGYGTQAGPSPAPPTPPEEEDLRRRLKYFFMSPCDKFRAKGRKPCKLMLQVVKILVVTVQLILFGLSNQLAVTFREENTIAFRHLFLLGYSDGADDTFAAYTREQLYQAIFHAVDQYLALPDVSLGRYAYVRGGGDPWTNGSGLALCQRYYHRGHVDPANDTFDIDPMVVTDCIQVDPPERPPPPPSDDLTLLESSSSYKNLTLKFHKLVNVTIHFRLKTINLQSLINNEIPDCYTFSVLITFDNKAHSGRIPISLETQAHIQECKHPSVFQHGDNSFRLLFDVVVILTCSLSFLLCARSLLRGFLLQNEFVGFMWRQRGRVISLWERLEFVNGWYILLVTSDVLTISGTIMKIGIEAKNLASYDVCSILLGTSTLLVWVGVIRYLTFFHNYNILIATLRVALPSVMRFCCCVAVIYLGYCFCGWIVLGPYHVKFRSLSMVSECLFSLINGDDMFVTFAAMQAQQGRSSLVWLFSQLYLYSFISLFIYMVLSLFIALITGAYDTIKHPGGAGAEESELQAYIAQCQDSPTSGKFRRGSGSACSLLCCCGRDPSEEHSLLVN
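TRPML1-DL cells, Tet-induced overnight (~16 h, 37 degrees C), loaded 45-90 min at room temperature with Ca8 no-wash calcium dye plus quencher. FDSS fluorescence: 10 s baseline, compound pin-transfer, 110 s agonist read, then EC80 54-4 (4uM final) and 110 s antagonist read.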
CtBP-E1A blk – blocks the CtBP interaction with E1A; AlphaScreen GST-E1A/His-CtBP binding, 1536-well; active compounds read low; control for the full effect not named in the record; activity change, % (concentration not given with the values); 340,000 compounds, 0.49% hits; in the data active means activity change below about -65%; inconclusive means about -30% to -65%; inactive means above about -30%; also: % is scaled to controls: 0 for no effect and ±100 for the full control effect
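GST-E1A and His-tagged CtBP (125 nM each as 5X stock) were preincubated with pin-transferred compound for 2 h at 37 °C in the dark, then glutathione donor and nickel acceptor beads were added for 1 h before AlphaScreen reading.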
Six1-Eya2 blk – inhibitors of human Six1/Eya2 interaction; AlphaScreen GST-Six1/His-Eya2 binding, biochemical; active compounds read low; control for the full effect not named in the record; activity change, % (concentration not given with the values); 360,000 compounds, 0.56% hits; in the data active = activity change below about -65%; inconclusive = about -30% to -65%; inactive = above about -30%; also: % is scaled to controls: 0 for no effect and ±100 for the full control effect
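Compounds are tested against tagged Six1 and Eya2 proteins bridged by glutathione donor and nickel acceptor beads; after a one-hour incubation at 37 °C without light, AlphaScreen emission is recorded.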
TRPV1 PAM – potentiators of human vanilloid receptor 1 (TRPV1). Q8NER1. TRPV1-expressing cells, Fluo-8 calcium influx, capsaicin EC20 potentiation; host cell line not named in the record; control for the full effect not named in the record. potentiation, % at 8.33 µM. 320,000 compounds, 0.02% hits; active means potentiation above 80%; inconclusive means 30% to 80%; inactive means below 30%; also: 0% is about no effect
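Cells expressing TRPV1 were dye-loaded with Fluo-8 and read kinetically: 10 s baseline, 3 min after compound (agonist portion), then 2 min after EC20 capsaicin (allosteric enhancer portion). Calcium-bound dye fluorescence at 480/520 nm.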
TRPML1 inh – inhibitors of human TRPML1 channel. TRPML1-inducible cells, Ca2+ dye fluorescence, FDSS; active compounds read low; inhibition of EC80 agonist-evoked calcium signal. activity change, negative = inhibition, % (concentration not given with the values). 390,000 compounds, 0.02% hits; in the data active means activity change below about -50%; inconclusive means about -30% to -50%; inactive means above about -30%;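 also: stimulus is agonist 54-4 at its EC80 concentration; % is scaled to controls: 0 for no effect and ±100 for the full control effect; the text of the record puts the active cut at -80%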
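TRPML1-DL cells, Tet-induced overnight (~16 h, 37 °C) at 1,500 cells/well, were loaded with Ca8 no-wash dye plus quencher for 45-90 min at room temperature. Compounds were pinned during FDSS kinetic reading; agonist 54-4 at EC80 (4 uM final) then added.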
The depositor's hits bear a star; ? = inconclusive; · = no result given; & = joins results of further samples.

canonical_smiles	TRPV1 PAM	D2 potentiator	TRPML1 inh	TRPML1 agonist	Six1-Eya2 blk	CtBP-E1A blk
CCc1nnc(NC(=O)CN2CCN(c3nc(-c4ccccc4)cs3)CC2)s1	4	1	16	3.0	-11	-10
COc1ccccc1NC(=O)CCNC(=O)Cn1ccc2ccccc2c1=O	20	-9	0	-0.5	1	-2
C=CCn1c(SCC(=O)NC2CCCCC2)nnc1C(C)NC(=O)c1cccs1 (stereo unspecified)	6	-3	22	0.7	1	3
O=S(=O)(NCCNS(=O)(=O)c1ccc(F)cc1)c1ccc(F)cc1	24	-4	3	0.5	0	1
COc1ccc(OC(C)C(=O)Nc2ccc([N+](=O)[O-])cc2)cc1 (stereo unspecified)	-22	-8	14	2.7	-1	0
CCOc1ccc2nc(NCCNC(=S)NCCCN(C)C)c(C#N)cc2c1	-13	-3	-6	0.4	2	-2
Cn1c(=O)n(C)c2cc(S(=O)(=O)Nc3ccc(F)cc3)ccc21	13	-2	-14	0.2	-1	-4
COc1ccc(NS(=O)(=O)c2cc(NC(=O)/C=C/c3cccs3)ccc2N2CCOCC2)cc1	-6	-7	-23	0.4	-20	-9
CC(=O)Nc1ccc(S(=O)(=O)N2CCC(n3cnc4cc(F)ccc43)CC2)cc1	-1	-3	1	-0.5	-11	-9
Cc1cc(N(C)C)nc(SC(C)C)n1	4	-7	4	-0.6	0	3
Cc1cccc(-n2ncc3c(N4CCCc5ccccc54)ncnc32)c1	7	-6	17	4.1	29	49
CCSc1nnc(Nc2ccccc2)s1	-21	-16	-9	1.6	-7	-2
O=C(CCCCCN1C(=O)c2ccccc2C1=O)Nc1ccc(S(=O)(=O)N2CCCCC2)cc1	13	8	2	-0.7	-2	2
COc1ccc(CCNC(=O)c2ccc(CNc3nc(=S)[nH]c4ccccc34)cc2)cc1OC	1	10	-12	-0.4	3	-5
O=C(NCc1ccccn1)C(=O)NCC(c1ccco1)N1CCN(c2ccc(F)cc2)CC1 (stereo unspecified)	-21	-5	·	·	-6	-8

canonical_smiles	TRPV1 PAM	D2 potentiator	TRPML1 inh	TRPML1 agonist	Six1-Eya2 blk	CtBP-E1A blk
COc1ccc(C(=O)NNC(=O)C(C)NC(=O)c2ccccc2NC(=O)c2ccco2)cc1 (stereo unspecified)	-6	-7	31	-0.2	0	-11
O=C(CCc1ccccc1)NNc1cc(N2CCCCC2)nc(N2CCCCC2)n1	-5	0	2	-0.6	-1	10
CC(=O)Nc1ccc2c3c(ccc([N+](=O)[O-])c13)CC2	·	-3	15	-0.2	-2	8
COc1ccc(CCNCC(=O)Nc2ccc(C)c(S(=O)(=O)N(C)C)c2)cc1OC	·	-24	-7	0.3	4	-20
Cc1ccccc1OCC(=O)NC(=S)Nc1cccc2cc(O)ccc12	-6	-6	-1	1.1	-10	-8
Cc1cccc(-n2c(C)cc(/C=N/n3cnnc3)c2C)c1	-10	-12	-9	0.5	-13	0
COc1ccc(OC)c(NC(=O)Nc2ccccc2C)c1	-5	-35	4	-1.2	-4	1
N#CCCCSc1ncccc1-c1nc2ccccc2[nH]1	11	1	-8	2.1	1	3
COc1cc(Cl)c(C)cc1NC(=O)Cc1ccc(OC)c(OC)c1	-24	-3	5	2.5	11	·
CC(C)(/C=N/NC(=O)CSCc1ccccc1Cl)CCC#N	-24	-10	31	0.2	9	-2
O=C(/C=C/c1ccc(F)cc1)NCCCn1ccnc1	2	-3	34	0.5	7	7
O=C(COC(=O)c1cc(-c2cccnc2)nc2ccccc12)Nc1ccc(F)cc1F	-15	4	25	5.4	-6	-4
CCN(CC)CCN1C(=O)C(O)=C(C(=O)c2cccs2)C1c1ccc(C)o1 (stereo unspecified)	4	-17	5	0.7	3	4
O=C(Cc1ccc(S(=O)(=O)N2CCOCC2)s1)Nc1cc(Cl)ccc1Cl	3	18	6	-0.1	-6	-4
CCOC(=O)Cc1csc(NS(=O)(=O)c2ccc(Br)cc2)n1	?	-3	17	0.0	4	0

canonical_smiles	TRPV1 PAM	D2 potentiator	TRPML1 inh	TRPML1 agonist	Six1-Eya2 blk	CtBP-E1A blk
COc1cccc(N(C(=O)CNC(=O)c2ccco2)C(C(=O)NC2CCCCC2)c2cccnc2)c1 (stereo unspecified)	-3	-3	-3	-0.4	0	0
CC(=O)Nc1cccc(/C(C)=N/NC(=O)c2c(-c3ccccc3Cl)noc2C)c1	19	-3	7	0.3	-11	3
Cc1cccc(NC(=O)CSCC(=O)Nc2ccccc2C(=O)NC2CC2)c1	1	-2	-11	0.6	1	6
CCOC(=O)CCCCCN1C(=O)c2cccc3cccc(c23)C1=O	0	1	·	·	5	·
O=C1NC(=O)C2(CCc3ccccc32)N1 (stereo unspecified)	0	-4	11	0.3	13	1
CN(C)c1ncc(S(=O)(=O)c2ccccc2)c(N)n1	23	2	15	0.1	-2	0
CCOC(=O)c1ccc(NC(=O)C(=O)NCC2(c3ccc(OC)cc3)CCOCC2)cc1	0	-8	36	1.1	-3	-20
N[C@@H](Cc1ccc(O)cc1)C(=O)Nc1ccc2ccccc2c1	-6	-7	-8	0.4	0	-4
O=c1[nH]cnc2sc3c(c12)CCCC3	17	-2	0	-0.4	-3	-8
O=C(O)c1cc(Cl)c(Cl)cc1C(=O)N1CCOCC1	?	-1	-9	4.9	2	7
Cn1nccc1C(=O)NC1CC(C)(C)Cc2c1cnn2-c1ccc(F)cc1 (stereo unspecified)	-13	0	19	0.2	9	5
O=C(Nc1ccc(NC(=O)c2ccco2)cc1)c1ccc2c(c1)OCCO2	-5	1	3	0.4	-8	-3
Cc1ccc(Cl)cc1NC(C#N)c1ccccc1 (stereo unspecified)	?	-6	0	1.2	9	11
CC(=O)c1cccc(NC(=O)COc2nsnc2N2CCOCC2)c1	3	-22	27	0.7	19	22
COC(=O)c1cc(NC2c3ccccc3C(=O)N2c2ccc(Cl)cn2)cc(C(=O)OC)c1 (stereo unspecified)	-7	-6	-16	0.1	-3	1

canonical_smiles	TRPV1 PAM	D2 potentiator	TRPML1 inh	TRPML1 agonist	Six1-Eya2 blk	CtBP-E1A blk
CN1CCN(c2nc(-c3ccco3)cc(C(F)(F)F)n2)CC1	-14	-10	-24	0.1	-7	-18
CN(C(=O)c1ccc2c(=O)n3c(nc2c1)CCCCC3)c1ccccc1	5	13	9	4.2	1	0
Nc1nc(SCC(=O)c2ccc(Br)s2)n[nH]1	-20	8	-12	-0.4	-10	9
COc1ccccc1NC(=O)CSc1nncn1N	6	-5	-11	1.0	16	-2
Cc1noc(C)c1C(=O)Nc1nc2ccc(Cl)cc2s1	-5	-11	3	1.1	-19	-15
O=C(NNc1cccc(Cl)n1)C(F)(F)F	18	-3	28	-0.3	-3	-6
O=c1c2c([nH]n1-c1ccccc1)CCCC2	6	-2	17	0.2	11	6
Cc1cccc(NC(=S)NCc2cccn2C)c1	?	-17	12	-0.8	-17	-10
Cc1ccc(Sc2ccc(S(=O)(=O)Nc3ccc(C(=O)O)cc3)cc2)cc1C	·	-16	12	-0.3	-22	·
CCOC(=O)c1sc(NS(=O)(=O)c2ccccc2Cl)nc1C	22	-1	4	-1.2	-12	-24
C=CCOc1ccc(Br)cc1CNC(C)(C)CO	6	8	30	1.9	4	·
COc1cc(/C=C2/CC(C)OC2=O)c([N+](=O)[O-])cc1OC (stereo unspecified)	9	-29	-9	-0.8	4	-4
COC(=O)c1ccc(NC(=O)C(=O)N2CCN(C(=S)Nc3ccc(C)cc3)CC2)cc1	-7	-6	25	0.9	-1	10
COCCNCC(=O)Nc1ccc(OC(F)(F)F)cc1	-9	-1	5	-0.1	7	2
COc1ccc(CNC(=O)CCc2nnc3ccc(NCCCN4CCCC4=O)nn23)cc1	-1	-4	-9	0.0	0	9

canonical_smiles	TRPV1 PAM	D2 potentiator	TRPML1 inh	TRPML1 agonist	Six1-Eya2 blk	CtBP-E1A blk
CCc1c(C)nc(SCC(=O)Nc2cccc(Br)c2)[nH]c1=O	26	-13	0	2.2	0	-5
COc1ccc(-c2nc(CCNC(=O)c3cccs3)cs2)cc1	-10	1	7&16	1.5&0.9	-11	-18
CN1CCN(S(=O)(=O)c2ccc(Sc3nnnn3-c3ccccc3)c([N+](=O)[O-])c2)CC1	0	15	-9	-0.4	-3	-14
CCCc1cc(=O)oc2cc(OCC(=O)NCC3CCC(C(=O)O)CC3)ccc12 (stereo unspecified)	15	4	5	0.0	13	21
COc1ccc(NS(=O)(=O)c2cccc(C(=O)N3CCCCCCC3)c2)cc1	2	4	-3	0.4	5	9
CN1CCC(N(C)C(=O)c2cc(=O)c3ccccc3o2)CC1	-3	2	8	-0.7	16	-4
COc1ccc(C2(c3ccc(OC)cc3)NC(=O)N(CC(=O)N(C)c3ccccc3)C2=O)cc1	-10	6	-5	0.6	-10	-16
COc1ccc(NC(=O)C2CCCN(S(=O)(=O)c3cccnc3)C2)cc1OC (stereo unspecified)	-18	-7	?	0.4	-9	1
CCOC(=O)Cn1c(=O)oc2cc(S(=O)(=O)NC3CCCCC3)ccc21	3	-10	-13	0.6	0	3
CC(=O)c1cnc2cc(-c3ccc(Cl)cc3)nn2c1C	2	-5	-14	-0.6	20	0
Cc1csc(=NC(=O)c2ccccc2)n1CCO	0	1	8	2.9	11	4
O=C(Nc1cccc(C(=O)N2CCCC2)c1)c1ccccc1	·	-1	2	0.6	-1	-3
O=C(Nc1cc(Cl)ccc1O)C1CC(c2ccccc2Cl)=NO1 (stereo unspecified)	7	-5	10	2.5	4	·
Nc1cc(N2CCCCC2)c(Cl)cc1[N+](=O)[O-]	-8	-7	7	0.4	-6	-2
CCC1(c2ccccc2)NC(=O)N(CC(=O)NNC(=O)CCN2CCN(c3ccccc3)CC2)C1=O (stereo unspecified)	12	-10	-8	0.4	2	-2

canonical_smiles	TRPV1 PAM	D2 potentiator	TRPML1 inh	TRPML1 agonist	Six1-Eya2 blk	CtBP-E1A blk
Cc1ccccc1Cn1c([N+](=O)[O-])cnc1C	-1	-3	-13	0.9	4	9
CCCCc1c(O)nc(SCC(=O)NCC2CCCO2)[nH]c1=O (stereo unspecified)	1	-9	9	5.3	2	0
C=CC[C@H](CC(=O)NCCO)C(=O)N[C@H](COC(=O)[C@@H](CC=C)Cc1ccc(F)cc1)C(C)(C)C	·	-7	-15	-0.3	-9	3
Cc1csc(NC(=O)c2ccc(COc3ccccc3)o2)n1	-3	-1	14	0.8	0	11
C/C(CC(=O)NC1CCCC1)=N\NC(=O)C1CCCCC1	-3	5	-10	0.4	-2	0
Cc1ccc(NC(=O)c2cc(S(=O)(=O)N3CCCCC3)c[nH]2)cc1C	7	-1	14	-0.9	-2	0

Given with two lines to a compound: entries from further up
Results follow in this order: TRPV1 PAM | D2 potentiator | TRPML1 inh | TRPML1 agonist | Six1-Eya2 blk | CtBP-E1A blk
- Cc1csc(NC(=O)c2ccc(COc3ccccc3)o2)n1
    -3 | -1 | 14 | 0.8 | 0 | 11
- C/C(CC(=O)NC1CCCC1)=N\NC(=O)C1CCCCC1
    -3 | 5 | -10 | 0.4 | -2 | 0
- Cc1ccc(NC(=O)c2cc(S(=O)(=O)N3CCCCC3)c[nH]2)cc1C
    7 | -1 | 14 | -0.9 | -2 | 0
- Cc1ccccc1Cn1c([N+](=O)[O-])cnc1C
    -1 | -3 | -13 | 0.9 | 4 | 9
- CCCCc1c(O)nc(SCC(=O)NCC2CCCO2)[nH]c1=O (stereo unspecified)
    1 | -9 | 9 | 5.3 | 2 | 0
